A647 fluor: compound fluoresces in the A647 spectral region; 59,000 tested, under 10 active; Compound fluorescence, A647 channel (570/671 nm), Tris buffer; AID 592; max dye-equivalent concentration, M; active means above 1 µM dye equivalent; inconclusive means 0.1 to 1 µM; inactive means 0.1 µM or less;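 also: values scaled relative to a standard on each plate; highest value over a series up to 38 µM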
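Fluorescence read (570 nm ex, 671 nm em) after 15 min RT incubation of compounds in 100 mM Tris buffer, pH 8.0; values expressed as dye-equivalent concentration against a six-point A647 standard series on each plate.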
Resorufin autofl: compounds fluorescent in resorufin spectral region; AID 588; max dye-equivalent concentration, M; Compound fluorescence, resorufin region 547/598 nm, buffer; stronger effect = higher value; 59,000 compounds, 0.04% hits; active = above 10 nM dye equivalent; inconclusive = 1 to 10 nM; inactive = 1 nM or less; a few of its hits are not listed in these tables; also: highest value over a series up to 38 µM
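Dye-equivalent concentration values derive from comparing each well's 547/598 nm fluorescence against resorufin standards included on every plate. Incubation was 15 min at room temperature in 100 mM Tris, pH 8.0.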
A488 fluor: A488 region autofluorescence | AID 591 | max dye equivalency, M | compound autofluorescence, A488 spectral region, dye equivalency; stronger effect = higher value | 59,000 compounds, 0.1% hits; active = above 10 nM dye equivalent; inconclusive = 1 to 10 nM; inactive = 1 nM or less; about half of its hits are not listed in these tables;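 also: highest value over a series up to 38 µM; compound alone in buffer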
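Intrinsic compound fluorescence is measured in 100 mM Tris buffer at pH 8.0 following 15 min incubation at room temperature. Intensities at 480 nm excitation/540 nm emission are calibrated to an on-plate A488 concentration series, giving dye-equivalent concentrations.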
AID923: qHTS Assay for Allosteric/Competitive Inhibitors of Caspase-1: Spectroscopic Profiling in AFC Spectral Region; compound fluorescence, AFC spectral region (405/520 nm); almost no hit is shown here; AID 923, 2007; Potency, µM (titrated, usually from 57.5 µM), for the others: top-dose fluorescence increase, actives largely listed as activators; 75,000 compounds, 1.1% hits; active = well fitted activation curve with a large enough effect; inconclusive = small, poorly fitted or top-dose-only effect;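 also: potency is read from the fitted curve at half-maximal effect; 0% is about no effect; scaled to a free AFC standard on each plate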
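Baseline compound fluorescence (AFC region, 405 nm ex/520 nm em) taken from the intercept of kinetic reads with 50 nM caspase-1 and 5 uM Ac-WEHD-AFC; normalized to an on-plate AFC standard curve; compounds titrated up to 57 uM.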
TSHR ag: activates the human thyroid stimulating hormone receptor; P16473; HEK293-CNG-TSHR cells (CNG channel as cAMP sensor), membrane potential dye, cAMP; Potency, µM (doses to about 57.1 µM), inactives show at the highest dose activation, usual class: activators; 73,000 compounds, 0.48% hits; active = well fitted activation curve of enough size with the parental cells flat; inconclusive = any curve in the parental cells; inactive = parental cells flat and receptor cells flat or falling; also: potency is read from the fitted curve at half-maximal effect; % of control where 0% means no effect; weak receptor curves with flat parental cells got no call and are not listed
Target sequence (P16473 whole entry, looked up): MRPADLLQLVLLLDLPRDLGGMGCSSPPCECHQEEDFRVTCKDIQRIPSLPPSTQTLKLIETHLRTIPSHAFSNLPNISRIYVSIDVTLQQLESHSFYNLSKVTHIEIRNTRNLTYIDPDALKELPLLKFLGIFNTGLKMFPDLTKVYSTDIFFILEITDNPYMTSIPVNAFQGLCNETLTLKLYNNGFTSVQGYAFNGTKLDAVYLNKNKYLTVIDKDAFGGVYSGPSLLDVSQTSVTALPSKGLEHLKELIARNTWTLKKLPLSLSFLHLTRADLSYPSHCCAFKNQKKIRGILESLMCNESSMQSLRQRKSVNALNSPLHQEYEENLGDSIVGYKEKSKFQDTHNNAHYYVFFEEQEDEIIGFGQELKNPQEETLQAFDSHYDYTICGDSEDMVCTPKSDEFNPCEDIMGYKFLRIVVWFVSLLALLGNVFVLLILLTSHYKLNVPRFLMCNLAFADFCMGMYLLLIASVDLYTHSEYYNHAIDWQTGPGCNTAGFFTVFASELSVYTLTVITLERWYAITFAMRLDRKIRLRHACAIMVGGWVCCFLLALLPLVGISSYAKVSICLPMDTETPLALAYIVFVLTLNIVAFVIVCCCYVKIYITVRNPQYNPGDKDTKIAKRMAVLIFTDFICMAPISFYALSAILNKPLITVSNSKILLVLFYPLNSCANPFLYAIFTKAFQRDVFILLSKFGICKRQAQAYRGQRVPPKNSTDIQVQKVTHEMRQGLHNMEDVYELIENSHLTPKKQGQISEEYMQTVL
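HEK 293 cells stably expressing TSHR and a modified CNG channel, with CNG-only parental cells as counterscreen, were preloaded 60 min at room temperature with membrane potential dye containing 100 uM RO 20-1724. Compound exposure was 30 min, and depolarization was read as fluorescence at 590 nm.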
Numbers without * were called inactive; i = inactive; ? = inconclusive; / = no result given; [ ] = remark or other dose.

Under each structure: TSHR ag | Resorufin autofl | AID923 | A647 fluor | A488 fluor
- CC1CN(Cc2nc3c(c(=O)n(C)c(=O)n3C)n2CCCc2ccccc2)CC(C)O1 (stereo not drawn)
  / | i | 2.6% | 3.1e-08 | i
- O=C(COc1ccccc1)NCCc1nc2ccccc2[nH]1
  10% | / | 0.0% | / | /
- CCC(=O)Nc1nc2ccc(NC(C)=O)cc2s1
  -3% | i | 1.5% | 4e-08 | i
- CCOC(=O)Nc1nc(-c2ccccc2)c(C)s1
  5%[11.4 µM] | i | 1.9%[11.5 µM] | 1.9e-08 | i
- CC(=O)OCc1ccco1
  ? | / | -6.8% | / | /
- COc1ccc(-c2coc3ccc(O[C@@H]4O[C@@H](COC(C)=O)[C@@H](OC(C)=O)[C@@H](OC(C)=O)[C@H]4OC(C)=O)c(OC(C)=O)c3c2=O)cc1
  -2% | i | / | 1.2e-08 | i
- Cc1cc(NC(=O)c2cc(C)on2)n(-c2ccccc2)n1
  -1% | i | -2.0% | 4.3e-09 | i
- CCOc1cc(-c2c(C#N)c(N)nc3c2CCCC3)ccc1O
  ? | i | 0.5% | 1e-09 | i
- CCOC(=O)c1sc(NCC2CCCO2)nc1C (stereo not drawn)
  -10% | i | 0.2% | 2.9e-08 | i
- CC(=O)Cc1ccccc1OCC(=O)O
  0% | i | -0.9% | 1e-09 | i
- COc1cc(C(=O)Nc2nccs2)cc(OC)c1OC
  / | i | / | 1e-09 | i
- Cc1ccccc1Cn1cc(/C=N/n2cnnc2)c2ccccc21
  ? | / | -2.6% | / | /
- CC1CCCCN1CCCNC(=O)C1CCN(c2nc3ccccc3o2)CC1 (stereo not drawn)
  7% | / | 3.5% | / | /
- COc1ccc2[nH]c(=O)c(CN(CC3CCCO3)C(=O)Nc3ccccc3)cc2c1 (stereo not drawn)
  7% | i | 0.3% | 1e-09 | i
- O=C(CSc1nc2ccccc2c(=O)n1Cc1ccco1)NCc1ccco1
  14% | i | 1.5% | 2.8e-08 | i
- COc1cccc(C(c2sc3ncnn3c2O)N2CC(C)OC(C)C2)c1 (stereo not drawn)
  ? | / | -8.8% | / | /
- CCn1c(=O)c2c3c(sc2n(C)c1=O)CCC3
  1% | i | -0.4% | 2.4e-08 | i
- COc1ccc(N2C(=O)CC(N3CCN(c4ccccc4F)CC3)C2=O)cc1 (stereo not drawn)
  3% | / | 0.9% | / | /
- Cn1c(=O)c2c(nc(OCc3cccnc3)n2Cc2c(F)cccc2Cl)n(C)c1=O
  19% | i | -0.5% | 3.5e-09 | i
- CN(C)CCNC(=O)c1ccccc1-c1ccccc1
  5% | i | 5.0% | 1e-09 | i
- OC1(c2ccc(Br)cc2)CCNCC1
  0% | i | -1.1% | 1e-09 | i
- CC1Cc2nc(SCC(=O)Nc3nccs3)n(C)c(=O)c2S1 (stereo not drawn)
  ? | / | -3.2% | / | /
- Cc1cccc(/N=C/c2c(O)cc(C)oc2=O)n1
  4% | i | 6.8% | 7.3e-09 | i
- COC(=O)C1(C)NC(c2cccs2)C2C(=O)N(c3ccccc3F)C(=O)C21 (stereo not drawn)
  6% | i | 1.1% | 2.1e-08 | i
- O=C(CN1CCN(c2ccc(Cl)cc2)CC1)c1ccc2c(c1)OCO2
  16% | i | 0.3% | 4.5e-08 | i
- COCC(=O)N1CCC[C@@]2(CCN(Cc3cc(C(F)(F)F)cc(C(F)(F)F)c3)C2)C1
  ? | i | -1.6% | 1e-09 | i
- CCC(=O)c1ccc(OCC(O)CN2CCN(c3cccc(C(F)(F)F)c3)CC2)cc1 (stereo not drawn)
  -6% | i | -1.8% | 3.6e-09 | i
- CCC(NC(=O)NCCCn1ccnc1)(C(F)(F)F)C(F)(F)F
  6% | i | -2.9% | 1e-09 | i
- COC(=O)c1ccc(C(=S)N2CCOCC2)cc1
  14% | i | 1.8% | 2.5e-08 | i
- Cc1nnc(SCC(=O)Nc2ccc(N3CCOCC3)cc2)o1
  17% | i | -0.7% | 2.7e-08 | i
- CCOc1ccc(Cl)cc1S(=O)(=O)n1nnc2ccccc21
  ? | i | -0.4% | 3.1e-09 | i
- Cc1cc(SCCC(=O)O)nc2ccccc12
  / | i | / | 3.4e-08 | i
- O=C(Nc1ccc(CN2CCOCC2)cc1)c1cc2ccccn2n1
  -1% | / | -0.7% | / | /
- COc1ccc(C(=O)c2ccccc2O)c(O)c1
  -7%[25.6 µM] | i | -3.0% | 2e-08 | i
- CC(C)[C@H](NC(=O)Nc1ccc(S(N)(=O)=O)cc1)C(=O)O
  1% | i | 1.3% | 5.5e-09 | i
- O=C(NC1CCCCCC1)C1c2ccccc2C(=O)N1C1CC1 (stereo not drawn)
  ? | i | -0.6% | 2.1e-09 | i
- CCCCCOc1ccc(/C=c2\sc3ncnn3c2=O)cc1
  21% | i | 0.0% | 4.8e-08 | i
- O=S(=O)(CCOc1ccccc1)c1nc2ccccc2[nH]1
  1% | i | -0.3% | 4.7e-08 | i
- O=C(CSCc1c(F)cccc1Cl)NCc1ccco1
  6% | i | -2.7% | 1e-09 | i
- CCc1ccccc1NC(=O)CSC1=C(C#N)C(c2ccc3c(c2)OCO3)C2=C(CCCC2=O)N1 (stereo not drawn)
  11% | i | -0.6% | 1.1e-08 | i

A draw from above in order of count of non-hydrogen atoms, high to low:
Under each structure: TSHR ag | Resorufin autofl | AID923 | A647 fluor | A488 fluor
- O=C(Nc1ccc(CN2CCOCC2)cc1)c1cc2ccccn2n1
  -1% | / | -0.7% | / | /
- O=C(NC1CCCCCC1)C1c2ccccc2C(=O)N1C1CC1 (stereo not drawn)
  ? | i | -0.6% | 2.1e-09 | i
- CCCCCOc1ccc(/C=c2\sc3ncnn3c2=O)cc1
  21% | i | 0.0% | 4.8e-08 | i
- O=S(=O)(CCOc1ccccc1)c1nc2ccccc2[nH]1
  1% | i | -0.3% | 4.7e-08 | i
- O=C(CSCc1c(F)cccc1Cl)NCc1ccco1
  6% | i | -2.7% | 1e-09 | i
- COc1ccc(C(=O)c2ccccc2O)c(O)c1
  -7%[25.6 µM] | i | -3.0% | 2e-08 | i

(next part)
Under each structure: TSHR ag | Resorufin autofl | AID923 | A647 fluor | A488 fluor
- CCOC(=O)c1ccc(NC(=O)c2ccc(CN3CCOCC3)cc2)cc1
  / | i | -0.8% | 4.8e-08 | i
- COc1ccccc1C(=O)N1CCN(c2ccccn2)CC1
  -1% | / | 0.0% | / | /
- CNc1nc(Oc2ccccc2C(=O)OC)nc(SC)n1
  8% | i | -1.2% | 1e-09 | i
- C=CCn1c(N)c(C(=O)NCc2cccnc2)sc1=S
  -14% | i | 0.3% | 1.1e-08 | i
- Cc1ccccc1NS(=O)(=O)c1ccc(OCC(=O)NCc2ccco2)cc1
  / | i | 0.4% | 3.9e-08 | i
- O=C(O)CSc1nnc(-c2ccco2)o1
  2% | i | -0.6% | 1.6e-08 | i
- Cc1cc(N2C(=O)C(O)=C(C(=O)c3ccc(C)o3)C2c2cccs2)no1 (stereo not drawn)
  7% | i | 2.7% | 4.3e-09 | i
- O=C(CN1CCCC1)Nc1ccc(-c2nc3cc(NC(=O)CN4CCCC4)ccc3o2)cc1
  1% | i | -2.7% | 1.3e-08 | i
- COP(=O)(/C=C/c1ccccc1)C(O)c1ccc(F)cc1 (stereo not drawn)
  5% | i | 0.5% | 1e-09 | i
- Cc1ccc(N=Nc2c(O)c(S(=O)(=O)O)cc3cc(S(=O)(=O)O)ccc23)c(C)c1
  -4%[11.4 µM] | i | -0.9%[11.5 µM] | 1e-09 | i
- Brc1cc(Br)c(Oc2cc(Br)c(Br)cc2Br)cc1Br
  -3% | / | -0.4% | / | /
- CNC(=O)CSCc1c(Cl)cccc1Cl
  18% | i | 2.0% | 1e-09 | i
- CCOc1cc(C2C(C#N)=C(N)OC(C)=C2C(C)=O)cc(Br)c1O (stereo not drawn)
  7% | i | 4.3% | 2.5e-09 | 1.2e-08M*
- COc1ccc(NC(=O)N2CC3(CCN(C(=O)c4ccncc4)CC3)C2)cc1
  ? | i | 1.9% | 3.8e-09 | i
- CCOC(=O)C(/C(N)=N/C(=O)Nc1ccccc1)=C(\C)O
  3%[11.4 µM] | i | 2.5% | 1.2e-08 | i
- CCOc1ccccc1OCCn1nnc2ccccc21
  17% | i | -0.6% | 3.6e-09 | i
- CC1CCC2CC1C2(C)C (stereo not drawn)
  -8% | / | 2.3% | / | /
- CC(OC(=O)c1ccncc1)C(=O)Nc1cccc(Cl)c1 (stereo not drawn)
  2% | i | -1.0% | 9.9e-09 | i
- CNc1oc(Cc2ccccc2)nc1S(=O)(=O)c1ccc(Cl)cc1
  12% | i | -1.9% | 2.1e-08 | i
- CCN1C(=O)N(CC)C(O)(c2ccccc2)C1(O)c1ccccc1 (stereo not drawn)
  -4% | / | -0.3% | / | /
- COc1ccc(OC)c(C2C3=C(CCCC3=O)Nc3nc4ccccc4n32)c1 (stereo not drawn)
  6% | i | 0.1% | 6.6e-09 | i
- CCN1CCN(C(=O)c2cn(CC)c3ccc(S(=O)(=O)N(C)C)cc3c2=O)CC1
  -7% | / | -0.9% | / | /
- O=C(CN1CCN(S(=O)(=O)/C=C/c2ccccc2)CC1)NC(=O)NCc1ccco1
  -3% | i | -0.2% | 1e-09 | i
- CC(=O)Nc1cc(-c2ccccc2)ccc1O
  -9% | i | -3.0% | 1e-09 | i
- O=C1CCCc2c1cc(C(=O)NC1CCSC1=O)c(=O)n2-c1ccccc1 (stereo not drawn)
  0% | i | 0.1% | 1e-09 | i
- C=CCn1c(SCC(=O)c2ccccc2)nnc1-c1ccc2c(c1)OCO2
  / | i | / | 2.1e-09 | i
- Cc1cc(C)n2nc(SC(C)C(=O)NCc3ccco3)nc2n1 (stereo not drawn)
  -8% | i | -1.5% | 1.2e-08 | i
- CCOC(=O)c1c(C)c(C(=O)NC2CCCCC2)c(C)n1CC
  0%[11.4 µM] | i | -0.6% | 1e-09 | i
- CN(C/C(O)=C(\C#N)c1ccccc1)C1CCCCC1
  0% | i | 3.3% | 1e-09 | i
- CCCCCn1c(SCc2ccncc2)nc2cc(C(=O)NCc3ccco3)ccc2c1=O
  -10% | i | 2.8% | 1.3e-09 | i
- CC1=C(C(=O)OCc2ccccc2)C(c2ccc([N+](=O)[O-])cc2)NC(=O)N1CCCCCC(=O)O (stereo not drawn)
  -4% | / | -4.9% | / | /
- O=C(NCc1n[nH]c(=S)n1-c1ccccc1)c1ccco1
  3% | i | -0.2% | 1.9e-08 | i
- O=c1cnc2cnc(Oc3ccccc3)nc2n1C1CC1
  6% | i | 1.5% | 1.5e-08 | i
- Cn1nnnc1SCC1=C(C(=O)O)N2C(=O)[C@@H](NC(=O)[C@H](O)c3ccccc3)[C@H]2SC1
  / | i | / | 1e-09 | i
- COC(=O)C(C)Sc1nnc2n(-c3cccc(C)c3)c(=O)c3c4c(sc3n12)CCCC4 (stereo not drawn)
  18% | / | -1.7% | / | /
- CCOC(=O)CCCCC(=O)c1[nH]c(=O)[nH]c1CSc1nc(C)cc(=O)[nH]1
  15% | i | 5.3% | 6.5e-09 | i
- CC1(C)C(=O)C(c2ccccc2)=C2CN3C(=O)N(CCc4ccccc4)C(=O)C3(Cc3ccccc3)C=C21 (stereo not drawn)
  17% | / | 0.1% | / | /
- CCOc1ccc2[nH]c(=O)c(CN(CCO)C(=O)c3ccc(F)cc3)cc2c1
  13% | i | 0.4% | 3.3e-08 | i
- CCN(CC(=O)Nc1c(C(=O)OC)[nH]c2ccc(Cl)cc12)c1ccc2c(c1)OCO2
  -19% | i | 1.9% | 1e-09 | i
- CCOC(=O)c1cc(OCC(=O)NC(C)C(C)C)cc(C(=O)OCC)c1 (stereo not drawn)
  10% | i | -0.8% | 1e-09 | i
- CCn1c(COc2ccccc2C)nnc1SCC(=O)Nc1cc(C)on1
  -1% | i | 2.4% | 7.3e-08 | i

These rows are one share of the data. The share of hits here may be higher or lower than overall.
